# GLA inh pH 4.5: qHTS Assay for Inhibitors of Human alpha-Galactosidase at pH 4.5; Alpha-galactosidase A (Homo sapiens), P06280; purified enzyme, 4-MU-alpha-Gal fluorescence, pH 4.5; activity change, negative = inhibition, % at 105 µM; 230,000 tested, under 10 active; inconclusive = small, poorly fitted or top-dose-only inhibition, or a rising curve; inactive = flat fitted curve, though single readings scatter; no compound was filed as active;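 further: 0% = full activity with enzyme and -100% = basal without enzyme; dose as in the result columns while the protocol names 77 µM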
# Rango complex inh: qHTS Assay for Inhibitors of Rango (Ran-regulated importin-beta cargo) - Importin beta complex formation. Importin subunit beta-1 (Homo sapiens), Q14974. Rango CFP/YFP FRET sensor + importin beta, 45 min. Potency, µM (series often up to 92.2 µM), for the others: at the highest dose inhibition of complex formation. hit rate 0.031% among 340,000. AID 540263, 2011; active = rising FRET ratio curve, often small or poorly fitted; inconclusive = mostly compound fluorescence or quenching in the first reads; inactive = flat curves in all reads;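 further: potency means the concentration at half of the fitted maximal effect; 0% = DMSO wells and 100% = buffer wells lacking importin beta; nearly all actives have a fitted effect of over 15% in size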
# Target sequence (Q14974 whole entry, looked up): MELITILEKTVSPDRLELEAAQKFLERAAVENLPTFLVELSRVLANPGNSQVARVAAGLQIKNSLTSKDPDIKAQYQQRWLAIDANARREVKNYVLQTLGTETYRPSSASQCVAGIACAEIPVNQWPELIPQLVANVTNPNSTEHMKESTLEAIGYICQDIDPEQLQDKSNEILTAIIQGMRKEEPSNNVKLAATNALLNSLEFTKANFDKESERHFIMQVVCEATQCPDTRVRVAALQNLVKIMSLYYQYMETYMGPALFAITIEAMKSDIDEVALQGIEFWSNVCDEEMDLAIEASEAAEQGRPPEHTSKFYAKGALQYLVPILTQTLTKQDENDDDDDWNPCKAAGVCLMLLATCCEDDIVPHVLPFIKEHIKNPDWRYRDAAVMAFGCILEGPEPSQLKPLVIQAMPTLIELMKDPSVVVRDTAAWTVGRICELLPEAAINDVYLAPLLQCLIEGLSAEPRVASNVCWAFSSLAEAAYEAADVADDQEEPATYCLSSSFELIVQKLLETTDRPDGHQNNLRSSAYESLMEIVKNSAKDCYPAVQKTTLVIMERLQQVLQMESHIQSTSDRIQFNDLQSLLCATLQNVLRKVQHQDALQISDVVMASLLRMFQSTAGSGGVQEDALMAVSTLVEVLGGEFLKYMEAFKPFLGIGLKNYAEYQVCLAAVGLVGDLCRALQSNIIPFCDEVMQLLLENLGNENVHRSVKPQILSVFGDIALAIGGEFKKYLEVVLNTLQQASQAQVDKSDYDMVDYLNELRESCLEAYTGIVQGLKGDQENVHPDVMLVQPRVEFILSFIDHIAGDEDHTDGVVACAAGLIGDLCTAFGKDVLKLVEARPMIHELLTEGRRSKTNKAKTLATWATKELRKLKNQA
#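 Inhibition scored from the CFP 486 nm/YFP 530 nm FRET ratio 45 min after adding 0.125 microM importin beta to 50 nM Rango biosensor preincubated 5 min with compound (room temperature, PBS with DTT, Tween-20, BSA). No-importin wells as positive control.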
# miR-21 reporter: qHTS Assay for Modulators of miRNAs and/orActivators of miR-21. HeLa miR-21 FLuc reporter, luciferase, 48 h. Potency, µM (series often up to 38.3 µM), for inactives: at the highest dose reporter change, positive = more light. 340,000 tested, under 10 active. AID 2288, 2010; active = well fitted rising curve with a large enough effect; inconclusive = small, poorly fitted or top-dose-only effect; inactive = no such curve, though single readings can be large or run the other way;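 further: % of control where 0% means no effect; miR-21 action dims this reporter so a rising signal means less miR-21 action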
#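 HeLa cells stably expressing CMV-driven firefly luciferase with a downstream miR-21 binding sequence, endogenously expressing miR-21, were treated with titrations (up to about 40uM final) for 48 hours at 37 degree Celsius. Luciferase luminescence was read after lysis.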
# Rango release inh: qHTS Assay for Inhibitors of RanGTP induced Rango (Ran-regulated importin-beta cargo) - Importin beta complex dissociation. Potency, µM (highest dose often 46.1 µM), for the others: at the highest dose activity change, negative = inhibition. Biochemical FRET Rango-importin beta, RanGTP-induced dissociation. AID 540253, 2011. hit rate 0.071% among 340,000; active means falling FRET ratio curve, often poorly fitted, with flat reads before Ran was added; inconclusive means other falling curves, or compound fluorescence or quenching; inactive means flat or rising ratio curve;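 further: potency means the concentration at half of the fitted maximal effect; % of control where 0% means no effect; nearly all actives have a fitted effect of over 45% in size; -100% = wells without RanGTP and RCC1; the record marks most hits as doubtful in a second field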
#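 Rango/importin beta premix (0.1/0.25 uM final), PBS + 1 mM DTT + 0.02% Tween-20 + 0.1% BSA; cpd 5 min RT; FRET pre-read; + RanGTP-RCC1 (0.6 uM Ran, 2 mM GTP, 0.2 uM RCC1); 45 min RT; FRET post-read, ex 430, em 486/530 nm.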
# Numbers without * were called inactive; ? = inconclusive; nt = not tested or not shown; & = joins results of further samples. The list is partial. The share of hits here may be higher or lower than overall.
SMILES,GLA inh pH 4.5,Rango complex inh,miR-21 reporter,Rango release inh
Cc1nn(C)c(Sc2ccccc2N)c1[N+](=O)[O-],-4,1.2%,-24%,1%
CC(=NNC(=O)c1ccc(NS(=O)(=O)c2ccc(Br)cc2)cc1)c1cccnc1,nt,1.2%,nt,-6%
Cc1cccc(N2CCN(C(=O)C3CCN(S(=O)(=O)c4c(C)noc4C)CC3)CC2C)c1 (stereo not drawn),-2,-1.4%,18%&24%,-4%
Nc1c(N=Nc2ccccc2F)c(=O)[nH]n1-c1ccccc1,-8,3.2%,-44%,1%
Cc1nnc(SCC(=O)Nc2cccc(Cl)c2)n1CC1CCCO1 (stereo not drawn),nt,-0.8%,-2%,1%
CCN(CC)C(=O)Cn1ccc(NC(C)=O)nc1=O,5,1.1%,2%,-4%
O=S(=O)(NC1CCN(S(=O)(=O)c2c(F)cccc2F)C1)c1ccc2c(c1)OCCO2 (stereo not drawn),nt,1.5%,nt,5%
O=S1(=O)CCN(c2ccccc2CC(c2c[nH]c3ccccc23)c2c[nH]c3ccccc23)CC1,nt,3.6%,nt,12%
CC(=O)Nc1ccc(S(=O)(=O)N2CCC(C(=O)NC3CC3)CC2)cc1,nt,-0.8%,1%,13%
CC(=O)c1ccc(S(=O)(=O)Nc2cccc(-c3ccc4nncn4n3)c2)cc1,1,-0.4%,0%,12%
CC1CCc2c(sc3ncnc(NCCCOC(C)C)c23)C1 (stereo not drawn),-1,0.7%,-5%,0%
CC(=NCCN1CCOCC1)C1=C(O)c2ccccc2C1=O,2,0.2%,-30%,-2%
Cc1ccc(C(=O)Nc2ccc(N3CCN(C)CC3)nc2)cc1,7,-6.4%,-35%,-10%
COc1cccc(OC)c1C(=O)OCC(=O)NC1CCCCCC1,nt,1.6%,nt,-1%
Cc1ccc(NC(=O)CCCNC(=O)c2ccc(Cl)cc2)cc1S(=O)(=O)N1CCOCC1,nt,0.4%,nt,3%
Cc1ccc(N2C(=O)CC(N3CCN/C3=C3\CC/C(=C\c4ccccc4)C3=O)C2=O)cc1 (stereo not drawn),2,-0.5%,0%,14%
COc1cc(C(=O)Nc2ccccc2C(=O)NCc2cccnc2)cc(OC)c1OC,nt,-0.7%,5%,0%
COc1ccccc1OCCNC(=O)C(CCSC)NC(=O)c1ccccc1Cl (stereo not drawn),nt,0.3%,nt,17%
CC(NC(=O)c1ccccc1)C(=O)N/N=C/c1cccc([N+](=O)[O-])c1 (stereo not drawn),3,-4.1%,-27%,-12%
O=C(NC(=S)NCC1CCCO1)c1ccccc1F (stereo not drawn),-4,0.0%,-27%,-13%
Cc1ccc([C@H]2C(C(=O)O)=CC[C@@H](c3ccc(Cl)cc3)N2S(=O)(=O)c2ccccc2C)cc1,nt,3.4%,nt,-2%
CCC1=C2CC[C@H]3C(=O)N(CC)C(=O)[C@H]3[C@H]2[C@@]2(Cc3ccccc3)C(=NCc3ccccc3)OC(=O)N2C1=O,-5&2,?,2%,-12%
COc1ccc(-n2c(C)cc(C(=O)COC(=O)c3ccc(O)cc3O)c2C)cc1,nt,6.7%,nt,0%
COc1ccc(Cl)cc1NC(=O)COC(=O)CCNC(C)=O,-15,3.0%,-6%,-11%
CN1CCN(Cn2cc(/C=C/C(=O)c3ccccc3)c3ccccc32)CC1,-3,?,-30%,?
CCc1ccccc1NC(=S)N1CCCCCC1,nt,2.1%,0%,-14%
N#C/C(=C\c1cccs1)C(=O)NCc1cccnc1,0,2.1%,-6%,4%
Cc1ccc2nc(-c3ccccc3)cc(C(=O)NNC(=O)c3csc(N4CCOCC4)n3)c2c1,nt,-4.7%,nt,11%
CC(SCc1ccc(C(=O)O)o1)c1ccc(C(=O)O)o1 (stereo not drawn),nt,-0.8%,1%,-4%
COc1ccccc1N1CCN(C(=O)c2cc3cc(Br)ccc3oc2=O)CC1,-6,-0.9%,-8%,7%
Cc1ccc(-n2nc3c(c2NC(=O)C(C)C)CS(=O)(=O)C3)cc1,nt,0.2%,-2%,1%
CCOC(=O)C(CC)(CCC(=O)OC)c1csc(Nc2ccccc2O)n1 (stereo not drawn),-5,nt,-9%,nt
O=C(NC(CC(=O)N1CCN(c2ccccc2O)CC1)c1ccccc1)c1ccccc1Cl (stereo not drawn),nt,-0.5%,nt,4%
Cc1cc(Cl)ccc1NC(=O)CCCN1C(=O)CCC1=O,9,2.3%,1%,13%
COc1cccc(CC(NC(C)=O)C(=O)NC2CCN(c3nc(C)cc(C)c3C#N)CC2)c1OC (stereo not drawn),-10,?,-4%,1%
CC[C@]12c3[nH]c4ccc(OC)cc4c3CCN1C(=O)C(CC(=O)NC(C)(C)C)C[C@@H]2C(=O)N1CCN(C(=O)c2ccco2)CC1 (stereo partly drawn),nt,1.6%,nt,8%
Cc1onc(C(=O)Nc2c(C)n(C)n(-c3ccccc3)c2=O)c1[N+](=O)[O-],-13,0.0%,4%,-5%
COc1ccc(N2C(=O)CC(N3CCN(S(=O)(=O)c4ccc(Cl)cc4)CC3)C2=O)cc1 (stereo not drawn),-5,-3.5%,1%,0%
NC(=O)C1CCN(c2c([N+](=O)[O-])cc(C(F)(F)F)cc2[N+](=O)[O-])CC1,9,1.2%,1%,-10%
O=C(COc1cccc2ccccc12)Nc1cc(Cl)ccc1C(=O)O,nt,-2.7%,5%,24%

# Reprinted at random: two records from the list.
SMILES,GLA inh pH 4.5,Rango complex inh,miR-21 reporter,Rango release inh
CCOC(=O)C(CC)(CCC(=O)OC)c1csc(Nc2ccccc2O)n1 (stereo not drawn),-5,nt,-9%,nt
COc1ccc(N2C(=O)CC(N3CCN(S(=O)(=O)c4ccc(Cl)cc4)CC3)C2=O)cc1 (stereo not drawn),-5,-3.5%,1%,0%

# Next part.
SMILES,GLA inh pH 4.5,Rango complex inh,miR-21 reporter,Rango release inh
Cc1ccc(S(=O)(=O)NC(C(=O)Oc2ccc3ccc(=O)oc3c2)c2ccccc2)cc1 (stereo not drawn),?,?,-3%,?
CCN1CCN(CC(=O)N2N=C(c3cccs3)CC2c2ccc(OC)cc2)C(=O)C1=O (stereo not drawn),7,0.8%,-7%,1%
Cc1nc(-c2ccccc2)sc1C(=O)O,-8,-1.2%,-48%,-12%
Cc1cc(Cl)c(S(=O)(=O)NCC2CCCO2)cc1OCC(=O)NC1CCCCC1 (stereo not drawn),1,0.6%,7%,-12%
CCc1cc(S(=O)(=O)N2CCN(C(=O)c3ccco3)CC2)ccc1OC,nt,-2.2%,3%,0%
CSc1ccc(CCNC(=O)c2cc(-c3ccccc3)c(N3CCOCC3)s2)cc1,nt,8.1%,11%,3%
O=C(CCc1ccccc1)N1CCCN(C(=O)CCc2ccccc2)CC1,-5,-0.3%,-16%,0%
COc1ccc(C(=O)Oc2ccc(C(C)=O)cc2)c(OC)c1,2,0.0%,-53%,-18%
c1ccc2sc(NC3=NCN(C4CCCCCC4)CN3)nc2c1,-13,1.4%,0%,15%
Cc1cc(C)c(NC(=O)CN(C)S(=O)(=O)c2ccc3c(c2)n(C)c(=O)c(=O)n3C)c(C)c1,nt,-3.4%,1%,-1%
CC1=NN(c2cccc(Cl)c2)C(=O)C12CC(C)=C(C)CS2 (stereo not drawn),-6,5.2%,-6%,3%
Cc1ccc(Cn2c(=S)[nH]c3ccccc3c2=O)cc1,nt,0.7%,-8%,8%
CCS(=O)(=O)c1ncc(Cl)c(C(=O)Nc2ccc(S(=O)(=O)N(C)c3ccccc3)cc2)n1,nt,0.0%,?,-8%
O=C1NCCN(Cc2ccc(Cl)c(F)c2)C1CC(=O)N1CCc2ccccc2C1 (stereo not drawn),2,?,-3%,-9%
COc1ccc(CCN(C)CC(O)COc2c(C)ccc(C)c2C)cc1OC (stereo not drawn),nt,-3.1%,-10%,-1%
COc1cccc(/C=c2\s/c(=C/C(=O)c3ccc(C)cc3)[nH]c2=O)c1OC,-9,?,-13%,?
COc1ccc(OC)c(S(=O)(=O)N2CCC(C(=O)NCCc3ccccc3)CC2)c1,-20,-1.2%,-12%,-4%
COC(=O)c1c(-c2cccs2)csc1NC(=O)c1cccnc1,-9,3.0%,-43%,3%
CC1CN(S(=O)(=O)c2ccc(C(=O)Nc3nnc(-c4ccco4)o3)cc2)CC(C)O1 (stereo not drawn),3,7.4%,15%,42%
COCC(C)NC(=O)CCc1nnc(C2(c3ccc(Cl)cc3)CCC2)o1 (stereo not drawn),3,-0.3%,-33%,1%
CC(C)(C)OC(=O)N[C@@H](Cc1ccccc1)C(=O)NCC1CCC(C(=O)N[C@@H](CCC(N)=O)C(=O)O)CC1 (stereo partly drawn),nt,0.1%,-3%,-1%
COC(=O)[C@@H]1Cc2c([nH]c3ccccc23)C(C)(C)N1C(=O)CCl,nt,-6.4%,?,-5%
O=C(NCc1ccccc1OC(F)(F)F)C1CCC(=O)N(C2CC2)C1 (stereo not drawn),nt,1.2%,0%,5%
CCCOc1ccc(NC(=O)CNC(=O)c2cc(OC)cc(OC)c2)cc1OCCC,nt,0.6%,-2%,-2%
CCC(=O)Nc1nnc(-c2ccc(OC)cc2)o1,-6,-1.0%,-16%,-14%
NS(=O)(=O)c1ccc(CNC(=S)NCc2ccc(F)cc2)cc1,nt,3.2%,0%,-2%
O=C(CSc1ncnc2sc3c(c12)CCCC3)c1ccco1,-11,2.9%,-42%,-7%
Cc1ccc(S(=O)(=O)N(CC(=O)Nc2cccc(N(C)S(C)(=O)=O)c2)c2ccc(Cl)c(Cl)c2)cc1,-5,?,23%,4%
COc1ccc(/C=C/C(=O)NC(=S)NCCc2ccc(OC)c(OC)c2)cc1,?,5.2%,-3%,5%
OCCN1CCN(c2ncnc3nc[nH]c23)CC1,9,?,-10%,-13%
CN(C(=O)CCN1C(=O)c2ccccc2C1=O)C1CCCCC1,-2,0.2%,-2%,-11%
CCC(=O)NC(=S)Nc1ccc(S(=O)(=O)NC(C)C)cc1,3,0.1%,-4%,1%
COc1ccc(S(=O)(=O)N(Cc2ccccc2)Cc2nc(-c3ccccc3)no2)cc1,0,-1.0%,7%,0%
O=CNc1ccccc1Oc1ccccc1,-7,-0.1%,-10%,-1%
CCOC(=O)CSc1nnc(CCCCCN2C(=O)c3cccc4cccc(c34)C2=O)o1,2,-1.1%,-2%,14%
COc1ccc(NC(=O)/C(=C/c2cccnc2)NC(=O)c2cccs2)cc1,-1,0.5%,1%,30%
CCOC(=O)Cc1csc(NC(=O)Nc2ccc(F)cc2)n1,2,2.6%,3%,0%
CCN(CC)c1ccc(-c2nn3c(-c4ccccc4OC)nnc3s2)cc1,13,?,21%,-17%
CC1(C)CC2CC(C)(CN2C(=O)c2cccs2)C1 (stereo not drawn),-10,-1.9%,0%,1%
COc1ccc(Cn2c(O)c(C=Nc3ccccc3C(=O)O)c3ccccc3c2=O)cc1,-3,?,21%,?
COc1ccccc1C(=O)NCC(=O)OCC(=O)NNC(=O)c1ccc(Br)cc1,nt,-2.9%,nt,0%
Nc1c(C(=O)CSc2nncn2-c2ccccc2)c(=O)[nH]c(=O)n1C1CC1,nt,3.9%,nt,28%
CN1CCN(c2nc3ccccc3nc2C(C#N)S(=O)(=O)c2ccccc2)CC1 (stereo not drawn),-13,?,28%,?
Cc1cccc(OCC(=O)N2CCOCC2)c1,3,-0.3%,-32%,?
COc1ccccc1CCC(=O)Nc1cccc(S(=O)(=O)N2CCCCCC2)c1,nt,-0.1%,nt,-2%
CC(C)C1(CCNC(=O)c2cccs2)CCOC(C)(C)C1 (stereo not drawn),0,-1.3%,-2%,22%

# Full records, quoted from the list:
# Record of COc1ccccc1CCC(=O)Nc1cccc(S(=O)(=O)N2CCCCCC2)c1 = GLA inh pH 4.5: nt; Rango complex inh: -0.1%; miR-21 reporter: nt; Rango release inh: -2%
# Record of Nc1c(C(=O)CSc2nncn2-c2ccccc2)c(=O)[nH]c(=O)n1C1CC1 = GLA inh pH 4.5: nt; Rango complex inh: 3.9%; miR-21 reporter: nt; Rango release inh: 28%

# Screens as filed in PubChem BioAssay.
